Compound activity as filed in PubChem.
TRPV1 PAM: HTS Assay for Compounds that Act as Potentiators of the Vanilloid Receptor 1 | AID 540277, 2011 | TRPV1-expressing cells, Fluo-8 calcium influx, capsaicin EC20 potentiation; host cell line not named in the record; control for the full effect not named in the record | Transient receptor potential cation channel subfamily V member 1 (Homo sapiens), Q8NER1 | 0.02% of 320,000 active | potentiation, % at 8.33 µM; active means potentiation above 80%; inconclusive means 30% to 80%; inactive means below 30%; also: 0% is about no effect
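TRPV1-expressing cells were cultured overnight at 35.5C and loaded with Fluo-8 calcium dye for 40 to 90 min at room temperature. After a 10 s baseline, compound was added and calcium influx was read kinetically for 3 min (ex 480/em 520 nm).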
Sfp PPTase inh: qHTS Assay for Inhibitors of Bacillus subtilis Sfp phosphopantetheinyl transferase (PPTase); 4'-phosphopantetheinyl transferase ffp (Bacillus subtilis), Q9F4F7; Biochemical Sfp PPTase activity, qHTS; Potency, µM, for inactives: max response, negative = inhibition, most hits filed as inhibitors; 3.5% of 310,000 active; AID 1490, 2009; active = well fitted inhibition curve with a large enough effect; inconclusive = small, poorly fitted or top-dose-only effect, or another doubt; inactive = no such curve, though single readings can be large or run the other way;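 also: the enzyme is Sfp with the accession as filed and its product quenches rhodamine fluorescence; potency is read from the fitted curve at half-maximal effect; 0% = enzyme reaction without inhibitor and -100% = no enzyme wells; top concentration of the series not given in the record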
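Fluorescence-quenching assay with 15 nM Sfp, 5 uM rhodamine-CoA and 12.5 uM BHQ-2-labelled ybbR peptide in pH 7.6 Hepes/MgCl2 buffer. Enzyme was pre-incubated with compound for 15 min at room temperature. Rate was taken from the 30-min fluorescence change (525/598 nm).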
CtBP-E1A blk: qHTS Assay for Inhibitors of the CtBP/E1A Interaction; CtBP / adenovirus E1A interaction (AlphaScreen); AlphaScreen GST-E1A/His-CtBP binding, 1536-well; hits give low values; control for the full effect not named in the record; activity change, % (test concentration not listed); 0.49% of 340,000 active; AID 651724, 2012; in the data active means activity change below about -65%; inconclusive means about -30% to -65%; inactive means above about -30%; also: % is scaled to controls: 0 for no effect and ±100 for the full control effect; compound concentration not given in the record
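Protein mix (5X: 125 nM each GST-E1A, His-CtBP) was incubated with pinned compound 2 h at 37 deg C in dark, in 50 mM Tris pH 8.0 buffer with 300 mM NaCl. Glutathione donor and nickel acceptor beads followed; AlphaScreen signal read after 1 h.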
PINK1 modulator: A Quantitative High throughput Screen to Identify Chemical Modulators of PINK1 Expression; PINK1 immunofluorescence, high-content cytometry, 24 h; Potency, µM (doses to about 76.6 µM), without a hit: at the highest dose activation (PINK1 increase), hits mostly activators; 0.2% of 410,000 active; active = well fitted activation curve with a large enough effect; inconclusive = small, poorly fitted or top-dose-only effect; inactive = flat fitted curve, though single readings scatter; cell line not stated here;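 also: potency is read from the fitted curve at half-maximal effect; % of control where 0% means no effect; nearly all actives have a fitted effect of over 65% in size; a mitochondrial uncoupler was the plate control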
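Decision-based qHTS: stable cells, 24 h exposure to five compound concentrations, CCCP as control. Fixed cells stained for PINK1 plus nuclear, mitochondrial and cell markers, cytometer read.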
Six1-Eya2 blk: qHTS Assay for Inhibitors of the Six1/Eya2 Interaction. Homeobox protein SIX1 (Homo sapiens) + Protein phosphatase EYA2 (Homo sapiens), …. AlphaScreen GST-Six1/His-Eya2 binding, biochemical; hits give low values; control for the full effect not named in the record. activity change, % (no concentration beside the values). 0.56% of 360,000 active. AID 651725, 2012; in the data active = activity change below about -65%; inconclusive = about -30% to -65%; inactive = above about -30%; also: % is scaled to controls: 0 for no effect and ±100 for the full control effect; compound concentration not given in the record
Target sequence (O00167 whole entry, looked up): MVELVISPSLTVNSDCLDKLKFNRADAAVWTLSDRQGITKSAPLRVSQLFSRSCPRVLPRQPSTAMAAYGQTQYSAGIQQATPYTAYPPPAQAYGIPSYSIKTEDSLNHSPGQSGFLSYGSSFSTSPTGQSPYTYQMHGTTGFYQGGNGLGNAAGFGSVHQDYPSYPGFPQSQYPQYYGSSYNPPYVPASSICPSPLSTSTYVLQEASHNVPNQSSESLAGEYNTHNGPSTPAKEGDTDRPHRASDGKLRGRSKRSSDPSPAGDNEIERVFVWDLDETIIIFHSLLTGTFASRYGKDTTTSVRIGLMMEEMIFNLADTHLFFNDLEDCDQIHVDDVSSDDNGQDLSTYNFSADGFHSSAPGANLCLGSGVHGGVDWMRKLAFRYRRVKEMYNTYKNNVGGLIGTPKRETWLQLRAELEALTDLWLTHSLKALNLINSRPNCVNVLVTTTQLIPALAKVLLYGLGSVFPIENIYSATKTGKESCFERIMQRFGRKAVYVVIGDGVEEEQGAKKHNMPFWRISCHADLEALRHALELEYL
Target sequence (Q15475 whole entry, looked up): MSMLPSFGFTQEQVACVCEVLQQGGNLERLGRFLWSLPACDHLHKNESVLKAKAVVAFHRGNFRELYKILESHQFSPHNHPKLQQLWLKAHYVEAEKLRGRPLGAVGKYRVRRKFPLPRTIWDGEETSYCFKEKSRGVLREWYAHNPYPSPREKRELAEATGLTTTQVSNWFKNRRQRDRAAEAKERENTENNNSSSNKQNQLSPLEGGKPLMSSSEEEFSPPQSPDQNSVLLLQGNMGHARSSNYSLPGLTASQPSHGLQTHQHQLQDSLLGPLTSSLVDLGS
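AlphaScreen luminescence read after one hour at 37 °C in darkness. Pin-transferred compounds met GST-Six1 and His-Eya2 protein (5X stock 250 nM/500 nM) plus glutathione donor and Ni-chelate acceptor beads (5X, 50 ug/mL).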
D2 potentiator: Beta-Arrestin HTS for Positive Allosteric Modulators of the Human D2 Dopamine Receptor: Potentiators; D(2) dopamine receptor (Homo sapiens), P14416; DiscoveRx D2 beta-arrestin cells, luminescence, 90 min; 100% = 57 uM dopamine signal; potentiation, % (concentration not given with the values); 0.23% of 360,000 active; active = potentiation of 50% or more; inconclusive = 30% to 50%; inactive = 30% or less;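 also: compound concentration not given in the record; tested on top of an EC20 dose of dopamine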
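D2 cells co-treated with compound plus 50 nM dopamine (EC20) for 90 min at 37 deg C to detect potentiation. Beta-arrestin recruitment was read as enzyme-fragment luminescence after 1 h at ambient temperature. Full response was set by 57 uM dopamine.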
D2 agonist: Beta-Arrestin HTS for Positive Allosteric Modulators of the Human D2 Dopamine Receptor: Agonists; activation, % (no concentration beside the values); AID 624465, 2012; 0.084% of 360,000 active; DiscoveRx PathHunter D2 beta-arrestin, luminescence, 90 min; 100% = 57 uM dopamine signal; D(2) dopamine receptor (Homo sapiens), P14416; in the data active = activation above about 40%; inconclusive = about 15% to 40%; inactive = below about 15%; also: compound concentration not given in the record; the text of the record calls up to 30% inactive
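DiscoveRx PathHunter D2 beta-arrestin cells (2,100/well) attached overnight, then compound-stimulated 90 min at 37 C in HBSS/10 mM HEPES/0.1% Tween-20 buffer; beta-galactosidase complementation read by luminescence after 1 h at ambient temperature. Dopamine 57 uM final (EC100) as control.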
Numbers without * were called inactive; u = inconclusive; x = not tested or not shown; [ ] = dose if it differs, or a comment. An unsorted share of the library; 3.7% or so of the library scored in one or more.

Preview (2 entries):
SMILES	TRPV1 PAM	Sfp PPTase inh	CtBP-E1A blk	PINK1 modulator	Six1-Eya2 blk	D2 potentiator	D2 agonist
COc1cc(C#N)ccc1OCC(=O)NCCC1=CCCCC1	-17	x	4	-0.4%	1	-3	9.6
N#Cc1ccccc1NC(=O)c1cccc(COc2ccc(Cl)cc2Cl)c1	10	1%	13	18%	9	-1	0.6

The whole of this part, repeating the preview:
SMILES	TRPV1 PAM	Sfp PPTase inh	CtBP-E1A blk	PINK1 modulator	Six1-Eya2 blk	D2 potentiator	D2 agonist
COc1cc(C#N)ccc1OCC(=O)NCCC1=CCCCC1	-17	x	4	-0.4%	1	-3	9.6
N#Cc1ccccc1NC(=O)c1cccc(COc2ccc(Cl)cc2Cl)c1	10	1%	13	18%	9	-1	0.6
CC(=O)Nc1ccc(N2C(=O)CSC2c2ccc(F)cc2)cc1 (stereo not given)	-1	4%	6	-2.5%	-2	-6	0.0
COc1ccc(-c2nn3c(-c4ccccc4)nnc3s2)cc1OC	15	0%	-28	u	u	0	0.6
Cc1ccc2c(c1)c(-c1ccccc1)nc1nncn12	-5	1%	u	4.1%	u	-27	-3.5
O=C(C1CCC(=O)N(C2CCCC2)C1)N1CCN(Cc2cccc(Cl)c2)CC1 (stereo not given)	0	4%	-1	5.0%	3	-7	1.4
COC(=O)c1ccsc1NC(=O)CSc1nnnn1Cc1ccccc1	u	-6%	-2	-2.0%	5	-12	-1.3
CC(C)(C)[C@H]1CCC(=O)N([C@H](CN=[N+]=[N-])Cc2ccccc2)CC1	-4	23%	x	1.0%	8	-14	-4.5
O=S(=O)(/N=C(\c1ccc(Cl)cc1)N1CCOCC1)c1ccccc1	-7	6%	-24	0.5%	-5	-1	-5.6
COc1ccc(NC(=O)C2(C)CCCN(C(C)=O)C2)cc1F (stereo not given)	x	x	4	0.9%	2	-14	-3.2
CC(=O)Nc1nonc1-c1nc2ccccc2n1Cc1ccccc1	x	-4%	0	u	1	4	0.6
COc1cc(Cc2nccc3cc(OC)c(OC)cc23)c(NC(C)=O)cc1OC	-24	15%	10	1.9%	4	0	7.9
COc1ccccc1NC(=O)CN1CCN(CC(=O)Nc2cc(NC(C)=O)ccc2OC)CC1	-14	0%	6	8.6%	4	10	-1.1
COc1ccc(C)cc1-n1nnnc1SCC(=O)c1cc(C)n(Cc2ccco2)c1C	8	-26%	-12	-2.2%	-17	-2	-1.4
CC(C)(C)Nc1nc(N2CCCC2)nc(N2CCCC2)n1	-8	9%	7	11%	4	-5	-0.3
CCn1c(CN2CCOCC2)nnc1SCC(=O)Nc1cccc(C)c1	4	8%	8	-0.4%	0	-14	-3.6
CCn1c(SCC(=O)Nc2ccccc2)nc2c1c(=O)n(C)c(=O)n2C	26	16%	0	22%[38.3 µM]	19	-26	0.4
CCc1cccc(OCC(=O)Nc2ccc(S(=O)(=O)Nc3onc(C)c3C)cc2)c1	-8	-10%	-3	-0.8%	1	-3	-2.7
COc1ccc(C(=O)COC(=O)c2ccc(-n3cnnn3)cc2)c(OC)c1	19	x	4	14%	6	3	2.5
C[C@H](CO)N1C[C@H](C)[C@@H](CN(C)Cc2cccc(O)c2)OCc2cnnn2CCCC1=O	x	x	0	0.4%	-1	2	-4.2
CCN(CC)CC(O)COc1ccccc1C(=O)CCc1ccccc1 (stereo not given)	-2	-19%	13	x	2	-19	1.2
Cc1nc2sccn2c(=O)c1S(=O)(=O)N1CCN(c2cccc(C(F)(F)F)c2)CC1	7	-3%	-23	6.5%	-5	-17	-2.8
O=S(=O)(NCCCN1CCOCC1)c1ccc(F)c(Cl)c1	-4	x	7	4.3%	3	-6	1.8
CCOc1ccccc1C(=O)NCC(=O)N(C)Cc1cccnc1	21	17%	2	1.2%	4	-5	-2.1
CCCNC(=O)C1CCN(S(=O)(=O)c2ccc(-c3nn[nH]n3)cc2)CC1	-4	1%	-6	2.9%[38.3 µM]	2	-4	-2.1
CCC(=O)Nc1c(-c2ccc3ccccc3c2)nc2ccccn12	-1	7%	0	0.2%	17	-20	-4.7
CCC(C)(C)c1ccc(OCCCC[n+]2ccc(C)cc2)c(C(C)(C)CC)c1	-14	40µM*	0	-2.6%	-1	1	-0.3
C/C(Cn1cnc([N+](=O)[O-])n1)=N\NC(=O)c1cccnc1	-2	-38%	-5	-1.1%	6	8	5.8
CCN(CC)C(=O)CSc1nnc(-c2ccco2)n1Cc1ccco1	0	-4%	-1	4.3%[38.3 µM]	-1	-5	1.9
NNC(=O)CSc1nc(-c2ccccc2)cn1-c1ccccc1	-38	14%	x	1.4%	-2	-23	-2.6
Cc1ccc(-c2nnn(CC(=O)N(CC(=O)NC3CCCC3)c3ccccc3F)n2)o1	-3	10%	2	2.6%	-7	2	-2.1
CC1CCC(C#N)(N(C)C(=O)CSc2nnc(C3CC3)n2C2CC2)CC1 (stereo not given)	14	x	1	0.5%	6	-4	0.3
O=C(NC(Cc1ccccc1)C(=O)O)/C(=C\c1ccc(Br)cc1)NC(=O)c1ccc(Br)o1 (stereo not given)	u	1%	7	4.5%	6	2	-1.1
Cc1[nH]n(-c2ccccc2)c(=O)c1/C=N/N(c1ccccc1)c1ccccc1	-11	11%	-20	1.5%	-20	7	1.0
COc1cc(CN2CCC(Cc3ccccc3)CC2)cc([N+](=O)[O-])c1O	-5	-17%	0	1.2%	3	-3	-3.3
CN(C(=O)c1cccc(NC(=O)Cc2cccc(NC(=O)C3CCCN(C(=O)C4CCCC4)C3)c2)c1)C1CC1 (stereo not given)	x	x	4	1.5%	-1	x	0.2
Cc1ccc(-c2n[nH]c(=S)n2/N=C/c2ccc(C)o2)cc1	3	71µM*	0	-1.1%	-8	17	0.9
CCOc1ccccc1Nc1cc(C)nc2nnnn12	21	-4%	-6	0.2%	10	1	-3.6
Cc1cccn2c(NCc3ccc4c(c3)OCO4)c(-c3ccc(O)cc3)nc12	-16	-2%	x	1.8%	-10	12	u
CCOc1ccc(CNC(=O)C2CCN(S(=O)(=O)CC)CC2)cc1OC	5	18%	7	x	0	-6	1.7
Cc1ccc(S(=O)(=O)N(CC(O)CN2CCCCC2)c2ccccc2)cc1 (stereo not given)	x	8%	1	-0.6%	-1	-14	-3.1
CC(NC(=O)c1ccc(F)cc1Cl)C1CC2CCC1C2 (stereo not given)	0	13%	4	0.7%	0	-4	-0.8
C=C(C)c1cccc(C(C)(C)NC(=O)N2CCCC2)c1	-9	14%	7	1.1%	-1	-9	-2.4
CC(C)(C)NC(=O)C1CC(=O)OC1(C)C (stereo not given)	-10	0%	2	2.1%[38.3 µM]	-2	8	-1.2
CCc1cc(=O)[nH]c(SCc2ccc(C)cc2)n1	11	21%	-15	3.0%	7	20	-0.5
Cc1noc(NC(=O)c2ccc(Cl)c(Cl)c2)c1Cl	-3	24%	x	u	-5	2	0.2
CCCCCCSc1ccc([C@@H]2[C@@H]3C(=O)N(C)C(=O)[C@@H]3[C@]3(C(=O)OC)CCCCN23)cc1OC	-24	x	-17	6.0%	-22	-13	-5.1
CCOC(=O)c1oc2ccccc2c1NC(=O)c1ccccc1OC	-19	0%	19	0.2%[38.3 µM]	18	-4	-5.8
COc1ccccc1NC(=O)CSc1nccn1Cc1ccc(F)cc1	15	1%	-21	-0.6%	-15	-10	-1.2
O=C(O)c1ccccc1CSc1nc2ccccc2n1Cc1ccccc1C(=O)O	3	21%	-18	2.3%	u	-8	-3.1
(continued)
SMILES	TRPV1 PAM	Sfp PPTase inh	CtBP-E1A blk	PINK1 modulator	Six1-Eya2 blk	D2 potentiator	D2 agonist
Cc1cccc(NC(=O)CSc2nnc(C)n2Cc2ccccc2)c1	5	5%	-1	-1.0%	2	-11	-6.4
CCCCN(C(=O)c1ccc(N2CCCC2=O)cc1)c1c(N)n(CC(C)C)c(=O)[nH]c1=O	-1	x	13	1.5%	-1	3	-2.6
CC(=O)Nc1sc(NC(=O)c2ccco2)nc1-c1cccs1	-43	20%	3	1.6%	1	5	7.3
CCOc1ccc(NC(=O)Nc2ccc3c(c2)nnn3C)cc1	4	-2%	5	-4.1%[38.3 µM]	-1	-6	2.2
CCOCCSc1nnc2nc(C)cc(C)n12	-2	1%	21	-1.5%	5	-25	1.2
COC(=O)c1c(C)[nH]c(C(=O)C(C)OC(=O)C2CC2)c1C (stereo not given)	1	x	7	1.4%	0	6	-0.7
CCOC(=O)c1c(C)[nH]c(C(C)=O)c1C	6	11%	1	-8.7%[38.3 µM]	-2	-3	0.2
Cn1nc(-c2ccc(C(=O)NCCO)cc2)c2ccccc2c1=O	8	13%	-26	-2.0%	-2	-1	3.9
CC(C)(C)OC(=O)N1CCC(NC(=O)c2[nH]cnc2C(=O)N[C@@H](Cc2ccccc2)C(=O)OCc2ccccc2)CC1	-14	-11%	-17	-0.9%	-14	-3	4.7
CC(=O)N(C)C[C@@H]1Oc2ncc(Br)cc2C(=O)N([C@H](C)CO)C[C@@H]1C	x	x	4	0.1%	3	4	-7.2
COc1cc(NC(=O)Cc2ccc(F)cc2)cc(OC)c1OC	-14	-8%	-3	2.2%	-3	-11	0.5
CCOc1ccc(S(=O)(=O)N2CCC(C(=O)N3CCN(c4ccccc4)CC3)CC2)cc1	2	10%	-12	3.5%	0	-4	-2.6
COC(=O)c1ccc(Sc2ccc(F)cc2)c(N)c1	-14	u	28	-3.1%[38.3 µM]	18	-1	1.9
O=C(OCCCCN1C(=O)c2ccccc2C1=O)c1ccc(S(=O)(=O)N2CCCC2)cc1	4	6%	2	-3.4%	1	-15	2.2
CNC(=O)c1ccc(NC(=O)C2CCN(S(=O)(=O)c3cccc(C(F)(F)F)c3)CC2)cc1	-5	x	x	4.9%	0	14	0.8
CCOc1cc(S(=O)(=O)N(CC)CC)c(OCC)cc1-n1cnnn1	-7	9%	-4	4.4%[38.3 µM]	-2	0	1.8
